Screens (PubChem)
HCMV NEC inh = inhibitors of HCMV UL50-UL53 interaction, biochemical, HTRF; HCMV UL50-UL53 nuclear egress complex (human cytomegalovirus); normalized percent inhibition; inhibition, % (no concentration beside the values); actives 0.15% (n = 190,000); AID 1918969, 2023;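 active = both replicates at 50% or more, plus weaker picks with an unusually low signal ratio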;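 also: stock transfer was 100 nL into about 20 µL; 0% = negative control wells and 100% = wells with untagged competitor protein; inactives centre near -12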
GIV Gai3 FP = inhibitors of GIV peptide binding to Galpha-i3, primary screen, biochemical, fluorescence polarization, FITC-GIV GBA peptide, rat Galphai3; 90 min; hits give low values; scaled: aluminum fluoride 0%, vehicle 100%; percent of control (FP), % (test concentration not listed); actives 0.42% (n = 210,000); AID 1224905, 2016;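 active = replicate mean at 85% of control or lower, very high polarization wells dropped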;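 also: wells of about 15 µL received 100 nL stock; the first replicate is given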
Target sequence (P08753 whole entry, looked up): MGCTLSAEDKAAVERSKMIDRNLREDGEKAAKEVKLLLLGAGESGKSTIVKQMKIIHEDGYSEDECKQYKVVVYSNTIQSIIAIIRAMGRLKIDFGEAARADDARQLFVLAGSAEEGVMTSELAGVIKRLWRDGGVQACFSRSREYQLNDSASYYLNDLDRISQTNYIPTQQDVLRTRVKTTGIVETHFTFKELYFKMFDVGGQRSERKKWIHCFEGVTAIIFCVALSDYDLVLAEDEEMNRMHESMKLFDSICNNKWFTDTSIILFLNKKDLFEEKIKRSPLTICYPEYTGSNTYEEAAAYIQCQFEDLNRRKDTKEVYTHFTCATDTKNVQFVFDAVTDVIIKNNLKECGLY
Sa growth inh = S. aureus growth inhibition at 42 and 30 °C, primary screen, LtaS inhibitor project, RN4220, two temperatures. OD600, 20 h, 42 °C; hits give low values. relative growth, % (test concentration not listed). actives 0.53% (n = 170,000);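 active = growth at 42 °C up to 50% and 20 or more points under that at 30 °C, or under 10% at both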;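 also: 300 nL library stock went into each well; scaled to the means of positive and negative controls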
Sa growth inh second temp = also measured in Sa growth inh; calls as there; relative growth, %; measured here: growth at 30 °C;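 optical density after 20 h as mean of two plates; 100% = untreated growth and lower means inhibition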
Starred values were filed as active, the others as inactive; · = not tested or not shown; & = joins results of further samples. Hits appear at their usual frequency; about 0.85% have a hit in one of these screens.

1: CCCCN1CCn2c(nc3ccccc32)C1
2: CC(OC(=O)c1ccccc1NS(C)(=O)=O)C(=O)NC1(C#N)CCCCC1 (stereo unspecified)
3: COc1cc(NC(=O)C2CCN(S(=O)(=O)c3ccc4c(c3)oc(=O)n4C)CC2)cc(OC)c1
4: O=C(COC(=O)Cc1cccs1)Nc1ccc(F)c(F)c1F
5: CN(Cc1ccccc1)C(=O)c1nc(-c2cccnc2)no1
entry no.,1,2,3,4,5
HCMV NEC inh,-20,19,-36,12,·
GIV Gai3 FP,96,·,105,·,99
Sa growth inh,·,100,106,115,94
Sa growth inh second temp,·,85,86,107,81

6: CCCCN(C)c1ccc(NS(=O)(=O)c2ccc(Br)cc2)c(C(=O)O)c1
7: COc1ccc(NC(=O)c2cc3cc(OC)ccc3n2C)cc1
8: CCOc1ccc(/C=C(\C#N)c2nc(-c3cc4ccccc4oc3=O)cs2)c(OCC)c1
9: Clc1cccc(OCc2nc3ccccc3o2)c1Cl
10: CCN(CCCNC(=O)CSc1cc(=O)n(C)c2cc(Cl)ccc12)c1cccc(C)c1
entry no.,6,7,8,9,10
HCMV NEC inh,-44,-16,-19,-24,10
GIV Gai3 FP,98,102,103,·,109
Sa growth inh,·,·,99,98,87
Sa growth inh second temp,·,·,92,100,91

11: CCCc1c(C(=O)NCCCn2ccnc2)cnn1-c1ccccc1
12: CCOC(=O)c1c(C)c(C(=O)Nc2ccc(OC)cc2)c(C)n1CC
13: CCc1ccccc1NC(=O)CC1NCCNC1=O (stereo unspecified)
14: CC(=O)Nc1sc(C)c(C)c1C(=O)O
15: COc1cccc(NC(=O)CN2C=NS(=O)(=O)c3ccccc32)c1
entry no.,11,12,13,14,15
HCMV NEC inh,-23,6,8,-13,·
GIV Gai3 FP,101,100,94,·,109
Sa growth inh,88,·,100,126,86
Sa growth inh second temp,86,·,93,93,97

16: CC(C)CNC(=O)c1ccc(Br)o1
17: Cc1nn(CC(=O)NC2CCCc3ccccc32)c(=O)c2cc3occc3n12 (stereo unspecified)
18: O=S(=O)(NC1=NCCC1)c1cccs1
19: Cc1ccc(CSc2nc3ccccc3c(=O)n2Cc2ccccc2)cc1
20: Cc1onc(-c2ccccc2Cl)c1C(=O)Nc1ccc2c(c1)sc(=O)n2C
entry no.,16,17,18,19,20
HCMV NEC inh,-10,-2,-6,·,10
GIV Gai3 FP,·,105,·,95,102
Sa growth inh,107,91,99,81,·
Sa growth inh second temp,90,89,95,93,·

21: COc1ccc(N(Cc2cc3ccccc3[nH]c2=O)C(=O)c2cccc(Cl)c2)cc1
22: CCC(C)NC(=O)Cn1ncc2c1-c1ccccc1OC2 (stereo unspecified)
23: CSC1=NCCN1C(=O)c1ccc(Br)cc1
24: O=C(C1CC(c2ccccc2F)=NO1)N1CCCC1 (stereo unspecified)
25: COc1ccc2oc(=O)cc(CN3CCN(c4ccc(F)cc4)CC3)c2c1
entry no.,21,22,23,24,25
HCMV NEC inh,-18,0,-29,-17,-25
GIV Gai3 FP,103,98,101,97,94
Sa growth inh,106,97,86,·,111
Sa growth inh second temp,85,97,83,·,71

26: CCOC(=O)c1c(C)[nH]c(CCC(=O)NCCCN2CCN(c3cc(Cl)ccc3C)CC2)c1C
27: CCOC(=O)c1c(-c2ccccc2)oc2ccc(N(C(C)=O)S(=O)(=O)c3ccccc3)cc12
28: CC(C)Cn1cc(NC(=O)N(C)C2CCCCC2)c2ccccc2c1=O
29: CCn1cc2nc(SCc3ccc(F)cc3)n(CCc3ccccc3)c(=O)c2n1
30: COc1ccc(C2SCCN2C(=O)c2cc3cc(Br)ccc3oc2=O)cc1OC (stereo unspecified)
entry no.,26,27,28,29,30
HCMV NEC inh,·,-34,-20,·,-10
GIV Gai3 FP,105,107,96,95,106
Sa growth inh,100,109,103,80,·
Sa growth inh second temp,58,93,87,68,·

31: COc1ccc(-c2nnc3sc(NC(=O)C(C)C)nn23)cc1
32: O=C(O)COc1ccccc1/C=N\n1cnnc1
33: Cn1c(=O)[nH]c(=O)c2c1nc1n2CCN1Cc1ccco1
34: Cc1ccc(Cl)cc1-n1ncc2c(NCCC3=CCCCC3)ncnc21
35: CCN(CC)S(=O)(=O)c1ccc(C(=O)Nc2c3c(nn2-c2cccc(C)c2)CSC3)cc1
entry no.,31,32,33,34,35
HCMV NEC inh,·,-35,-3,·,22
GIV Gai3 FP,100,101,108,106,107
Sa growth inh,84,77,109,82,·
Sa growth inh second temp,90,86,91,69,·

Some of the entries so far, with each value named.
31: COc1ccc(-c2nnc3sc(NC(=O)C(C)C)nn23)cc1
- HCMV NEC inh = ·
- GIV Gai3 FP = 100
- Sa growth inh = 84
- Sa growth inh second temp = 90
34: Cc1ccc(Cl)cc1-n1ncc2c(NCCC3=CCCCC3)ncnc21
- HCMV NEC inh = ·
- GIV Gai3 FP = 106
- Sa growth inh = 82
- Sa growth inh second temp = 69
32: O=C(O)COc1ccccc1/C=N\n1cnnc1
- HCMV NEC inh = -35
- GIV Gai3 FP = 101
- Sa growth inh = 77
- Sa growth inh second temp = 86
33: Cn1c(=O)[nH]c(=O)c2c1nc1n2CCN1Cc1ccco1
- HCMV NEC inh = -3
- GIV Gai3 FP = 108
- Sa growth inh = 109
- Sa growth inh second temp = 91

Next structures:
36: Cn1nc(C(=O)NCc2ccc(Cl)cc2)c2c1CCN(C(=O)C1CC1)C2
37: Cc1cc(C)cc(NC(=O)N2CCC(NC(=O)C3CCCCC3)CC2)c1
38: Cc1nc2ccc(NC(=O)c3cccc(S(C)(=O)=O)c3)cc2s1
39: O=C1CC2(CCCC2)C(=O)N1CCc1cccs1
40: COc1ccc(C2CC(c3c(O)n(C4CCCCC4)c(=O)[nH]c3=O)=Nc3ccccc3S2)cc1 (stereo unspecified)
entry no.,36,37,38,39,40
HCMV NEC inh,20,-30,-22,-16,-7
GIV Gai3 FP,98,102,101,107,97
Sa growth inh,·,95,102,88,99
Sa growth inh second temp,·,84,84,87,89

41: CCOC(=O)C12C(=O)OC(C)(C)C1C2(C)C(=O)c1ccc(Br)cc1 (stereo unspecified)
42: CCc1ccc(OC(C)C(=O)Nc2nonc2-c2ccc(OC)c(C)c2)cc1 (stereo unspecified)
43: Cc1ccnc(NC(c2ccccn2)c2cc(C)sc2NC(=O)c2ccccc2)c1 (stereo unspecified)
44: CS(=O)(=O)Nc1ccccc1C(=O)OCC(=O)NC1CC1
45: CCN(CC)c1ccc2cc(C(=O)NC(C)=O)c(=Nc3ccccc3OC)oc2c1
entry no.,41,42,43,44,45
HCMV NEC inh,-10,-7,-34,-30,-25
GIV Gai3 FP,·,104,109,·,114
Sa growth inh,99,·,·,86,·
Sa growth inh second temp,85,·,·,95,·

46: Cc1cccc(C)c1OC(=O)CN1C(=O)c2ccccc2C1=O
47: CC(Sc1nnc(-c2ccccc2)o1)C(=O)NCCC1=CCCCC1 (stereo unspecified)
48: c1ccc(C2Oc3ccccc3C3CC(c4ccco4)=NN32)cc1 (stereo unspecified)
49: Cc1cc(-c2c(O)c3ccccc3n(C)c2=O)no1
50: NC(=O)c1cc2ccccc2o/c1=N\O
entry no.,46,47,48,49,50
HCMV NEC inh,·,3,·,2,-68
GIV Gai3 FP,113,·,157,·,·
Sa growth inh,69,85,90,90,84
Sa growth inh second temp,100,96,85,101,27

51: COc1ccc2c(CNC3CCCCCC3)c(C(=O)O)n(Cc3cccc(F)c3)c2c1
52: Cc1nc(N(C)C)cc(N2CCN(S(=O)(=O)c3ccc(Br)cc3)CC2)n1
53: Cc1sc2nc(C(C)Sc3nnc(-c4cccs4)n3-c3ccccc3)[nH]c(=O)c2c1C (stereo unspecified)
54: COc1ccc(S(=O)(=O)NCC(c2ccco2)N2CCN(c3ccccc3F)CC2)cc1C (stereo unspecified)
55: Cc1nn(C(C)C(=O)NCc2ccccc2)c(=O)c2cc3occc3n12 (stereo unspecified)
entry no.,51,52,53,54,55
HCMV NEC inh,·,-31,-18,·,-1
GIV Gai3 FP,101,100,·,102,106
Sa growth inh,90,·,83,108,82
Sa growth inh second temp,93,·,96,95,82

56: CSc1nc(-c2ccccc2)nc2[nH]c(-c3ccccc3)cc(=O)c12
57: CCOc1ccc(CNC(=O)C2CCN(C3=NS(=O)(=O)C(c4ccc(C)cc4)=C3CC)CC2)cc1
58: CCn1cc(S(=O)(=O)c2cc(C)cc(C)c2)c(=O)c2cc(F)c(N3CCCC3)cc21
59: COc1ccc(-c2cc3ccc(O)c(CN4CCOCC4)c3oc2=O)cc1OC
60: CN1CCN(CCNC(=O)Cn2ncc3c4ccccc4n(Cc4ccc(F)cc4)c3c2=O)CC1
entry no.,56,57,58,59,60
HCMV NEC inh,0,-31,·,·,-3
GIV Gai3 FP,100,101,107,124,102
Sa growth inh,101,109,73,107,106
Sa growth inh second temp,72,89,93,103,84

61: O=c1c2ccccc2nc2n1CCN2Cc1ccccc1
62: O=C(/C=C/c1ccco1)Nc1ccc2ccccc2c1
63: CSc1ccccc1NC(=O)CN(C)C(=O)C1CCCCC1
64: COC(=O)c1sc(N)c(C(=O)OC)c1COC(=O)c1cc(S(N)(=O)=O)ccc1OC
65: COC(=O)/C=C1\S/C(=N\c2ccccn2)N(c2cccc(SC)c2)C1=O
entry no.,61,62,63,64,65
HCMV NEC inh,-24,-10,7,-42,·
GIV Gai3 FP,101,121,·,·,94
Sa growth inh,84,79,102,99,94
Sa growth inh second temp,95,86,82,91,87

66: Cc1c(Cl)cccc1NC(=O)CC1Oc2ccccc2NC1=O (stereo unspecified)
67: CN(C)/C=C(/C(=O)c1ccccc1)c1nc2ccccc2[nH]1
68: CC1(C)CC(NC(=O)c2ccco2)CC(C)(C)N1
69: COC(=O)CSc1nc(-c2ccccc2)nc2c1Cc1cccc(OC)c1O2
70: CC(=O)SCCC(=O)N1C(C)CCCC1C(=O)O (stereo unspecified)
entry no.,66,67,68,69,70
HCMV NEC inh,-15,-21,18,-1,-29
GIV Gai3 FP,99,·,·,105,104
Sa growth inh,112,88,100,98,85
Sa growth inh second temp,85,88,102,91,84

71: CN(C(=O)COC(=O)c1cccc(F)c1)c1ccccc1
72: C[N+](C)(C)CCNC(=O)c1ccc(/C=N/O)nc1
73: CSc1ccc(N=CN2C(=O)c3ccccc3C2=O)cc1
74: CC(=O)Nc1ccc(NC(=O)CC(C)(C)CC(=O)O)cc1
75: CCc1ccc2nc(N(Cc3cccnc3)C(C)=O)sc2c1
entry no.,71,72,73,74,75
HCMV NEC inh,-9,-29,-14,-20,·
GIV Gai3 FP,·,104,·,95,102
Sa growth inh,98,85,99,81,66
Sa growth inh second temp,93,101,87,87,10

76: O=C(OCCN1C(=O)c2ccccc2C1=O)c1cccc(S(=O)(=O)N2CCCCC2)c1
77: COc1cc(/C=N/n2c(C)nc3c(ncn3-c3ccccc3)c2=O)cc(OC)c1OC
78: O=C1c2cccc3cccc(c23)C(=O)N1c1ccncc1
79: CCC(C)NC(=O)Cc1ccc(NC(=O)N2CCCCc3ccccc32)cc1 (stereo unspecified)
80: O=C(NCc1ccccc1)C1Sc2nnc(-c3ccccc3)n2NC1c1ccc(F)cc1 (stereo unspecified)
entry no.,76,77,78,79,80
HCMV NEC inh,-5,4,-74,-30,·
GIV Gai3 FP,·,105,98,94&104,102
Sa growth inh,108,116,87,82,112
Sa growth inh second temp,102,82,86,90,96

81: COc1ccc(C2CC(SCC(=O)Nc3ccccc3)=Nc3ncnn32)cc1 (stereo unspecified)
82: Cc1cc(Br)ccc1NC(=O)c1cc2c(s1)-c1ccccc1OC2
83: CCOC(=O)C1CCN([C@H]2CS(=O)(=O)C[C@@H]2S(=O)(=O)c2ccc(Cl)cc2)CC1
84: COC(=O)C1=C(NC(=O)c2ccccc2F)CCS1
85: C=CCN1C(=O)c2ccc(C(=O)Nc3ccc(F)cc3)cc2C1=O
86: c1ccc(Nc2c(-c3c[nH]c4ccccc34)nc3ccccn23)cc1
87: Cc1ccc(-c2nc3scc(CCNC(=O)c4cccc(Br)c4)n3n2)cc1
88: O=C(NCC1CCCCC1)c1cccnc1
entry no.,81,82,83,84,85,86,87,88
HCMV NEC inh,-28,·,-11,-31,-9,-14,·,-24
GIV Gai3 FP,100,103,118,101,·,105,105,100
Sa growth inh,71,97,·,85,99,101,106,97
Sa growth inh second temp,52,98,·,79,98,97,86,100
